Screens: PubChem, National Center for Advancing Translational Sciences (NCATS)
NPR1 antag: Natriuretic polypeptide receptor (hNpr1) antagonism - Primary qHTS; HEK293 hNpr1 GloSensor cGMP, ANP-stimulated luminescence; Potency, µM (doses to about 46.3 µM), without a hit: at the highest dose activity change, negative = inhibition, hits mostly inhibitors; 76,000 compounds, 1.6% hits; AID 1347048, 2019; active = well fitted inhibition curve with a large enough effect; inconclusive = small, poorly fitted or top-dose-only effect; inactive = no such curve, though single readings can be large or run the other way;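 also: nearly all actives have a fitted effect of over 60% in size; nearly all hits also lower the signal before the agonist is added; a reference antagonist and vehicle were the controls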
Target sequence (P16066 whole entry, looked up): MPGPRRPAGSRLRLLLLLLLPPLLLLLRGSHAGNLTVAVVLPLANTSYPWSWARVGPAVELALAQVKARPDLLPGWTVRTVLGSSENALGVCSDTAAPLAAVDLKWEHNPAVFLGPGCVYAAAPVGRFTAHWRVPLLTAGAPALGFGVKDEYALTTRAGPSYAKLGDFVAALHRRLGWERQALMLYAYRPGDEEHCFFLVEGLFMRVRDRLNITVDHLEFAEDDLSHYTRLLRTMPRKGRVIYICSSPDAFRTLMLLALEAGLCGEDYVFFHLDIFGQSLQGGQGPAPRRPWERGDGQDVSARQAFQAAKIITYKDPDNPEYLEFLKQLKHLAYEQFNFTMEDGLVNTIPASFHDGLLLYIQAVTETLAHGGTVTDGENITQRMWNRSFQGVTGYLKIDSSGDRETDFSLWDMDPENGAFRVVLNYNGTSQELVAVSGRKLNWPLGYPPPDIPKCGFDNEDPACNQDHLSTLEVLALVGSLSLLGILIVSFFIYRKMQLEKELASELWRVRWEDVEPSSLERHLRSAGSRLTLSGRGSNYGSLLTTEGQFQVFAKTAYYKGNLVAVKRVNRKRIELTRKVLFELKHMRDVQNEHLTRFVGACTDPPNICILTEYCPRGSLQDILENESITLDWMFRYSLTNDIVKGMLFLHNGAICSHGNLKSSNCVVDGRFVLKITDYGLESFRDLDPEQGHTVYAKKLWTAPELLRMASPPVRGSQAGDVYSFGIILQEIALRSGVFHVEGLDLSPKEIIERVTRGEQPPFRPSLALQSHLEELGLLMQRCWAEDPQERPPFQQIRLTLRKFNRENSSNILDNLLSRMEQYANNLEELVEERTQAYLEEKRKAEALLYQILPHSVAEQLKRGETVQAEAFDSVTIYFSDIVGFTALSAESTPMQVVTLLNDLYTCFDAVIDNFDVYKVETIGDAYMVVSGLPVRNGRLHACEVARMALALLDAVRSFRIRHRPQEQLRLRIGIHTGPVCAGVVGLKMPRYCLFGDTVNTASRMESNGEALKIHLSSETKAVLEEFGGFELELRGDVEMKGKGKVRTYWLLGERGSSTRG
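HEK293 cells stably expressing human Npr1 and cGMP GloSensor pGS-40F, loaded 2 h with 2% GloSensor reagent, given compound 30 min at room temperature. Luminescence read before and 20 min after 0.1 nM hNppA.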
An asterisk follows results filed as active; ? = inconclusive; [ ] = remark or other dose. % is scaled to controls: 0 for no effect and ±100 for the full control effect; potency is read from the fitted curve at half-maximal effect. These rows are one share of the data; the hit share may differ from the screen's.

| NPR1 antag | structure |
| --- | --- |
| 1% | CCC1Oc2ccc(NC(=O)Nc3cccc(OC)c3)cc2CN(Cc2ccc3c(c2)OCO3)C1=O (stereo not drawn) |
| -1% | CCC1COCCN1C(=O)c1coc(COc2ccc3c(c2)OCO3)n1 (stereo not drawn) |
| 4% | COc1ccc2cc(CN3CCNC(=O)C3C)c(-c3cccs3)nc2c1 (stereo not drawn) |
| -3% | CC(O)c1cc2n(n1)CCN(C(=O)C1(c3ccc(Cl)cc3)CCC1)C2 (stereo not drawn) |
| -24% | CCC1=C(C(=O)OC)C(c2ccc(C)cc2C)N2C(CC(=O)Nc3ccc(OC)cc3)=CSC2=N1 (stereo not drawn) |
| 0% | O=C(NCc1ccccc1)N1CC(n2cc(C(=O)N3CCOCC3)nn2)C1 |
| -2% | O=C1CCN(C(=O)c2ccc3ccccc3n2)CCCCCCN1 |
| -17% | CCOC(=O)C1CCCN(C(=O)Cc2ccc(N(Cc3cccc(F)c3)C(=O)c3ccco3)cc2)C1 (stereo not drawn) |
| 5% | CNC(=O)Nc1ccc(C)n(CC(=O)N2CCN(c3cccc(Cl)c3)CC2)c1=O |
| 0% | FC(F)(F)c1ccc(N2C3CCC2CN(Cc2ccc(-c4ccccc4)cc2)C3)cc1 |
| -2% | CN(CC1CCOCC1)C(=O)c1ccsc1 |
| -1% | O=C(N1CCN([S+](=O)([O-])c2ccccc2)CC1)N1CC2CC(C1)[C@H]1CCCC(=O)N1C2 (stereo partly drawn) |
| 1% | COc1cc(-c2ccnc3nc(-c4cccs4)nn23)cc(OC)c1OC |
| 0% | O=C1CCC2(CCN(C(=O)c3ccco3)CC2)CN1CC1CCCO1 (stereo not drawn) |
| 5% | CN1CCC(Oc2ccc(C(=O)NCCc3ccncc3)cn2)CC1 |
| 11% | COC1CN(c2cccc(F)c2)C12CCN(C(=O)CC1CCN(C(C)=O)CC1)CC2 (stereo not drawn) |
| -6% | O=C(Nc1ccc([C@H]2OCC(=O)N(Cc3ccccc3)[C@@H]2CO)cc1)c1ccc2c(c1)OCO2 |
| 0% | CCN1C(=O)C2CC3(CCN(C(=O)c4nccn4C)CC3)CN2C1=O (stereo not drawn) |
| ? | O=C(Cc1ccc(F)cc1)N1CCC2(CC1)N=C(c1ccc(Cl)cc1)NO2 |
| -4% | O=C(c1cccc(-c2ncc[nH]2)c1)N1CCCC(O)(CN2CCCC2)C1 (stereo not drawn) |
| 32µM* | CN(C)c1cccc(-c2cnc3[nH]cc(CC(=O)N4CCOCC4)c3c2)c1 |
| 6% | COCC1CN(C2CCC2)CC12CCN(C(=O)CC(C)C)CC2 (stereo not drawn) |
| -5% | Cc1nc2cc(C(=O)N3CCC(Cc4nncn4C(C)C)CC3)ccc2n1-c1ccc(C(C)C)cc1 |
| 0%[70.6 µM] | Cc1ccncc1-c1c(C)nn2c1N(C(=O)c1cccc(Cl)c1)CCC2 |
| 5% | CS(=O)(=O)N1CCC(Cc2ccc(C(=O)O)cc2)CC1 |
| 1%[70.6 µM] | Cc1noc2c(NC3CCN(C)CC3)cc(-c3ccc(F)cc3)nc12 |
| 1% | Cc1ccccc1-c1nc2cnccn2c1NCCC(=O)N(C)Cc1ccccc1 |
| 5%[70.6 µM] | COc1ccc2c(c1)CN(CC1CCCCC1)CC[C@H]1COC(=O)N21 |
| -2%[70.6 µM] | Cc1ccccc1-c1ccnc(-c2nnc(C)n2Cc2ccccc2)c1 |
| -1% | O=C(Cn1nc2c(cc1=O)CCCC2)NC1CCN(Cc2ccc(F)cc2)CC1 |

Ordered by molar mass (rising): three of the compounds above.
| NPR1 antag | structure |
| --- | --- |
| 6% | COCC1CN(C2CCC2)CC12CCN(C(=O)CC(C)C)CC2 (stereo not drawn) |
| -1% | CCC1COCCN1C(=O)c1coc(COc2ccc3c(c2)OCO3)n1 (stereo not drawn) |
| 1% | COc1cc(-c2ccnc3nc(-c4cccs4)nn23)cc(OC)c1OC |

Next structures
| NPR1 antag | structure |
| --- | --- |
| 1%[70.6 µM] | Fc1ccc(-c2noc([C@@H]3CCCN3Cc3ccccc3)n2)nc1 |
| -1% | CN1CCC2(CCC1=O)CN(Cc1cccc(Cl)c1Cl)CCN2C (stereo not drawn) |
| -2% | COc1ccc(NC(=O)c2cc3c(N4CCCC4)nc(C)cn3n2)c(OC)c1 |
| 3%[70.6 µM] | CN(Cc1ccsc1)C1CCc2ccccc21 (stereo not drawn) |
| 0% | COc1ccc(C(=O)N2CCC3(CC2)OC(=O)N(Cc2cccnc2)C3(C)c2ccccc2)cn1 (stereo not drawn) |
| -10% | CCC(=O)Nc1ccc(C2(C(=O)N3CCN(c4ccccn4)CC3)CCCCC2)cc1 |
| 3%[70.6 µM] | O=C(NCc1ccc(F)cc1)c1nc(-c2cccnc2)c2cnccn12 |
| -1%[70.6 µM] | CN(Cc1ccc(OC(F)(F)F)cc1)C1CCc2ccccc21 (stereo not drawn) |
| 7% | Cc1c(C2c3nc[nH]c3CCN2Cc2ccc(CO)o2)oc2ccccc12 (stereo not drawn) |
| 0%[70.6 µM] | COc1cccc(N2CC(C(=O)N(C)C)NC2=O)c1 (stereo not drawn) |
| 1% | COc1ccc(CN(C)Cc2ccncc2C)c(OCC(O)CN2CCCC2)c1 (stereo not drawn) |
| 4% | N#Cc1cccc(C(=O)N2CCCCCCNC(=O)[C@@H]3CCCC[C@@H]32)c1 |
| 4% | Cc1noc(-c2cccc(F)c2)c1C(=O)NCCCCc1ccccc1 |
| -27% | O=C1CC2(CCN(Cc3ccc(C(F)(F)F)cc3)CC2)Oc2ccccc2N1 |
| 6% | COCCC1(NS(C)(=O)=O)CCN(C(=O)c2ccc(OC)nc2)CC1 |
| -3% | CCOc1ccc(CN2CCNC(=O)C2CC(=O)N2CCCCCC2)cc1 (stereo not drawn) |
| -7%[70.6 µM] | Fc1ccc(CN2CCn3c(nnc3-c3ccccc3)C2)cc1 |
| -2%[70.6 µM] | CC(=O)N1CCC(NC[C@H]2Cn3c(-c4ccc5c(c4)OCCO5)cnc3CO2)CC1 |
| 12% | Cc1ncncc1C(=O)N1CC[C@@](O)(C2CCOCC2)[C@H](C)C1 |
| 1%[70.6 µM] | COc1ccc(-c2ccc3ncc(Nc4ccc(CCO)cc4)n3n2)cn1 |
| 5% | COc1ccc(NC(=O)c2cc(-c3ccc[nH]3)n[nH]2)cc1F |
| -2% | CCCC1(CO)CCCN(C(=O)c2ccc(C)c(N3CCNC3=O)c2)C1 (stereo not drawn) |
| 8% | COCC(=O)N(C1CCOCC1)C1CCN(C(=O)c2ccc(C)c(C)c2)CC1 |
| 3% | COC[C@H]1NC(=O)CC[C@H]1C(=O)N1CCN(c2ccccc2F)CC1 |
| 6%[70.6 µM] | Cc1nnc([C@H]2CCN(Cc3ccccc3)C2)o1 |
| 13% | CCC(=O)N1CCC2(CC1)CC(N1CCCCC1)CCO2 (stereo not drawn) |
| 3%[70.6 µM] | c1ccc(-c2nnc3ccc(-c4ccoc4)nn23)nc1 |
| -1% | O=c1[nH]nc2n1CCNCC2 |
| 1% | O=C(CC1CCCN(c2cnn(CC3CC3)c(=O)c2)C1)Nc1cccc(F)c1 (stereo not drawn) |
| 0% | Cc1noc(C)c1CN1CCC2(CC1)C(C(=O)O)CC(=O)N2C (stereo not drawn) |

Two entries from above in another layout.
molecule: CN(Cc1ccsc1)C1CCc2ccccc21 (stereo not drawn)
  NPR1 antag = 3%[70.6 µM]
molecule: COc1ccc(C(=O)N2CCC3(CC2)OC(=O)N(Cc2cccnc2)C3(C)c2ccccc2)cn1 (stereo not drawn)
  NPR1 antag = 0%

The listing continues.
| NPR1 antag | structure |
| --- | --- |
| 6% | Cc1cc(C)n(CC(=O)N[C@@H]2CN(Cc3cccnc3)C[C@H]2CN(C)C)n1 |
| 4% | CCOc1ccccc1NC(=O)N1CCC(OC2CCN(S(C)(=O)=O)CC2)CC1 |
| 1% | O=C([C@@H]1C[C@H](Oc2cccnc2)CN1C(=O)CN1CCCCCC1)N1CCCC1 |
| -4% | COCCN1C(=O)CC[C@]2(C(=O)NCCc3ccccc3)CCCC[C@@H]12 |
| -14% | O=C(c1ccccn1)N1CCCN(c2cc(-c3ccc(Cl)cc3)[nH]n2)CC1 |
| 1%[70.6 µM] | Cn1c(CO[C@H]2CN(C(=O)c3ccno3)C[C@H]2F)nc2ccccc21 |
| -2% | Cc1cccc(C(=O)N2CCC(OC3CCN(Cc4ccccc4)CC3)CC2)c1 |
| 4% | O=C(Cc1ccsc1)NCC1CCCCC(=O)N1 (stereo not drawn) |
| 5% | COc1cccc(C(=O)N2CCC(N3C[C@H](O)C[C@H]3C(=O)NCC3CC3)CC2)c1 |
| 1% | CC(C)(C)CC(=O)N1CCC(N2CC3CC(C2)[C@H]2CCCC(=O)N2C3)CC1 (stereo partly drawn) |
| -20% | COc1ccc(N2C(=O)CSC23CCN(C(=O)Nc2ccc(C)cc2)CC3)cc1 |
| 0% | COc1ccccc1CCC(=O)N[C@@H]1CN(c2ncccn2)C[C@H]1CN(C)C |
| 20% | NC(=O)COc1cccc(C(=O)N2CCC3(CC2)OCCCC3O)c1 (stereo not drawn) |
| 12% | Cc1ccc(CNC(=O)CC2CCCN(c3cnn(C)c(=O)c3)C2)cc1C (stereo not drawn) |
| 3% | C=C(C)COc1ccc(C(=O)N2CCN3C(=O)CN(C)C(=O)C3C2)cc1 (stereo not drawn) |
| -3% | COC(=O)c1ccccc1C(=O)N1CCCC(CCC(=O)Nc2ccc(F)cc2C)C1 (stereo not drawn) |
| -21% | O=C(c1ccco1)N1CCC(c2noc(CO)n2)C1 (stereo not drawn) |
| 4% | COc1ccc(-n2c(=O)c3c(n2Cc2ccccc2)CN(Cc2ccc(F)cc2)CC3)cc1 |
| -23%[70.6 µM] | CC(C)N1CCC[C@H]1c1nc(-c2ccc(OC3CCCCC3)nc2)no1 |
| 4% | Cc1ccc(Cl)cc1-n1nc(-c2c(C)nc3scc(CC(=O)NCC(C)C)n3c2=O)cc1C |
| 0%[70.6 µM] | O=C(N[C@H]1[C@H](O)[C@H](O)C[C@@H]1c1ccc(C(F)(F)F)cc1)c1ccc2c(c1)OCCO2 |
| -15% | CN(Cc1ccccc1)C(=O)c1ccnc(-c2nnc3ccc(N(C)c4ccccc4)nn23)c1 |
| -2% | O=C([C@@H]1C[C@H](Oc2ccccc2)CN1C(=O)Nc1ccccc1F)N1CCOCC1 |
| ? | CCCOc1ccc(CN2C[C@@H](CO)[C@H](c3ccncc3)C2)cc1 |
| -13% | COc1ccc(-c2ccc3nnc(CNC(=O)c4cc(Cl)ccc4OC)n3n2)cc1 |
| 4% | CN1C(=O)c2cccn2CC1C(=O)N1CCCC1 (stereo not drawn) |
| 11%[70.6 µM] | O=CN1CCCC(n2cnc3cccnc32)C1 (stereo not drawn) |
| -8%[70.6 µM] | CSCCNC(=O)c1nc2sccn2c1Br |
| 0% | Cn1cnnc1CC1CCN(C(=O)c2ccc(Oc3ccccc3)o2)CC1 |
| 2%[70.6 µM] | CC1(COc2ccccc2)COc2ccc(C(=O)NCc3ccco3)cc2N1 (stereo not drawn) |

As a short view, some entries already given.
| NPR1 antag | structure |
| --- | --- |
| -8%[70.6 µM] | CSCCNC(=O)c1nc2sccn2c1Br |
| 0% | Cn1cnnc1CC1CCN(C(=O)c2ccc(Oc3ccccc3)o2)CC1 |
| 2%[70.6 µM] | CC1(COc2ccccc2)COc2ccc(C(=O)NCc3ccco3)cc2N1 (stereo not drawn) |

Next section:
| NPR1 antag | structure |
| --- | --- |
| 4%[70.6 µM] | COc1ccc(-c2cnc3[nH]cc(CC(=O)NC4CCOCC4)c3c2)cc1 |
| 3%[70.6 µM] | CN1CCOc2c(C(=O)NCc3cccnc3)cc(-c3ccccc3F)cc21 |
| 3% | CCc1cccc(C)c1NC(=O)Cn1c(C)cc2nc3n(c(=O)c21)CCCCC3 |
| 4% | Cc1cc2nc3n(c(=O)c2n1CC(=O)NCCCc1ccccc1)CCCC3 |
| 3% | COc1ccc(C[C@H](NC(=O)[C@@]2(O)C[C@@H](O)[C@H](O)[C@@H](NC(=O)Nc3ccc(C(C)=O)cc3)C2)C(N)=O)cc1 |
| -11% | CNC(=O)[C@@H]1CN(C(=O)COc2ccc(Cl)cc2C)C[C@H]1COC |
| -11% | O=c1[nH]c(N2CCc3ccccc3C2)nc2c1CCN(Cc1cccs1)CC2 |
| 0%[70.6 µM] | CC(=O)N1CC2(Cc3ccccc31)CN(C(=O)c1ccc(F)cc1)C2 |
| -4% | Cn1ncc(N2CCCC(CC(=O)NCCN3CCCCC3)C2)cc1=O (stereo not drawn) |
| 1% | CS(=O)(=O)c1ccc(CC(=O)N2CCCC(c3cccc(C(=O)O)c3)C2)cc1 (stereo not drawn) |
| 5% | COc1ccccc1CCC(=O)N1CCC2(CC1)NC(=O)N(c1ccc(F)cc1)N2 |
| -20% | CC(CCc1ccccc1)NC(=O)CCn1ccn2nc3c(c2c1=O)CCCC3 (stereo not drawn) |
| -3% | Cc1nc(C(=O)NC2CCN(c3ncccc3C#N)CC2)cs1 |
| -2%[70.6 µM] | Cc1ccc(-c2cc(-c3ccc(=O)[nH]c3)c3cncn3c2)cn1 |
| -1% | CNC(=O)[C@@H]1C[C@H](Oc2cccnc2)CN1C(=O)Cc1ccccc1 |
| 4% | O=C(O)c1cccc(C2CCCN(C(=O)CCn3nnc4ccccc43)C2)c1 (stereo not drawn) |
| 13µM* | Cc1cccc(N2CCN(C(=O)CC3CCCCN(Cc4ccccc4)C3=O)CC2)c1 (stereo not drawn) |
| 0% | COc1cc(-c2ccnc3nc(Cc4cc(F)cc(F)c4)nn23)cc(OC)c1OC |
| 2% | O=C(CCc1ccccc1)N1C[C@@H](CO)[C@H](c2ccncc2)C1 |

NPR1 antag: what is marked active above.
| NPR1 antag | structure |
| --- | --- |
| 32µM* | CN(C)c1cccc(-c2cnc3[nH]cc(CC(=O)N4CCOCC4)c3c2)c1 |
| 13µM* | Cc1cccc(N2CCN(C(=O)CC3CCCCN(Cc4ccccc4)C3=O)CC2)c1 (stereo not drawn) |
